NPYLR7 agonist: mosquito NPYLR7 agonism; HEK293T NPYLR7/Galpha15, GCaMP6s calcium fluorescence; activation, % at 10 µM; actives 0.15% (n = 270,000); AID 1259423; in the data active = activation above about 40%;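 note: 0% = vehicle and 100% = reference agonist at the receptor; some compounds past the cut are filed as inactive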
NPYLR7 agonist max-min: second read-out of NPYLR7 agonist, no call of its own (marks repeat the call); activation, %; measured here: Max-Min RFU normalised activation; some inactives read as strong as hits;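 span of the calcium signal over five minutes; 0% = vehicle and 100% = native peptide agonist; compound fluorescence can raise it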
* = called active by the depositor; & = joins results of further samples. This is a subset; the hit share may differ from the screen's.

no. | compound | NPYLR7 agonist | NPYLR7 agonist max-min
1 | CCCCC(CC)COCCCNC(=O)c1cncn1-c1cccc(-c2cccc3c2sc2ccccc23)c1 (stereo not given) | 14.7 | 13.7
2 | CCCN(CC(=O)N(CCc1c[nH]c2ccccc12)Cc1ccc(C(F)(F)F)cc1)C(=O)c1ccc(Cl)cc1 | 20.8 | 28.6
3 | COc1ccc(-c2noc(CN3CCc4c(Cl)cccc4C3)n2)c(OC)c1OC | 19.4 | 10.4
4 | Cc1nc(SCc2nc3ccccc3s2)c2ccccc2n1 | 8.1 | 7.3
5 | CCCn1c(SCc2cc3c(cc2Br)OCO3)n[nH]c1=O | 9.1 | 7.3
6 | c1ccc(-c2nccc3n[nH]c(C4CCCCC4)c23)cc1 | 5.4 | 3.7
7 | O=C(c1csc(CSc2nnc(-c3ccco3)n2-c2ccc(F)cc2)n1)N1CCN(Cc2ccc3c(c2)OCO3)CC1 | -14.8 | -5.4
8 | CC(=O)N1CCc2c(nc(-c3ccncc3)nc2NCc2cc(C)[nH]n2)C1 | -5.8 | -8.5
9 | FC(F)(F)Oc1cccc(Oc2ccc3c(-c4ccccn4)noc3n2)c1 | 1.0 | -0.3
10 | CC(C)c1ccc(-n2c(=O)c3ccccc3n(CC(=O)NCCN3CCOCC3)c2=O)cc1 | -6.0 | 1.3
11 | Nc1nc(Cl)cc(N2CCOc3ccccc3C2)n1 | 9.1 | 7.2
12 | Cc1ccc(F)cc1C(=O)N1CCN(c2nc3nccc(-c4ccc(C(C)(C)C)cc4)n3n2)CC1 | 4.0 | 3.5
13 | Cc1nc(C(C)N(C)Cc2cnc(N3CCCC3)nc2)c(C)s1 (stereo not given) | 2.1 | 0.4
14 | O=C(c1ccco1)N(Cc1ccc2c(c1)OCO2)Cc1cc(Cl)ccc1OCc1nc(CO)cs1 | -1.5 | 12.0
15 | Cc1cn(S(=O)(=O)c2ccc(F)cc2)cn1 | -0.3 | -0.9
16 | O=S(=O)(Nc1ccccc1F)c1cccc2nonc12 | 0.8 | -2.1
17 | C=CCN1C(=O)NC(c2cccc(Cl)c2)C2=C1CN(CC(=O)NCc1ccco1)C2=O (stereo not given) | 2.8 | 15.7
18 | Cc1ccc(C(=O)N2CCCC(c3ccccc3)C2)c(=O)[nH]1 (stereo not given) | -1.9 | -4.5
19 | O=[N+]([O-])c1ccc(S(=O)(=O)NCCOc2ccc(-c3ccccc3)nn2)cc1 | -6.2 | -16.5
20 | CCN1CCN(c2nc(Nc3ccccc3C)c3cnn(-c4ccccc4)c3n2)CC1 | -1.2 | -2.4
21 | CCN(CC)CCN1CCN(c2cncc(-c3cccc(N)c3)n2)CC1 | 13.8 | 4.3
22 | N#Cc1cccc(S(=O)(=O)NCCc2ccccn2)c1 | 2.8 | 0.7
23 | COC(=O)c1nnn(-c2cccc(Cl)c2C)c1C(=O)OC | 6.4 | 6.5
24 | CC(C)Cc1nc(CCn2c(=O)[nH]c3ccccc32)n[nH]1 | 21.7 | 13.5
25 | CCOc1cccc2cc(C(=O)NC(C)=O)c(=Nc3ccc(C(C)=O)cc3)oc12 | -17.3 | -21.0
26 | O=C(c1ccco1)N1CCc2ccccc2C1c1ccccc1F (stereo not given) | -0.4 | 9.6
27 | COc1cccc(C2c3cccn3CCCN2Cc2ccccc2[N+](=O)[O-])c1 (stereo not given) | 11.0 | 20.4
28 | O=C(c1ccc(Cl)c(Cl)c1)N1CCC(CCc2ccccc2)CC1 | 5.1 | 7.2
29 | CNC(=O)C(=O)N[C@H]1[C@H](O)C[C@@H]2C[C@H](c3ccccc3)OC[C@]21O | 6.9 | 20.6
30 | Cc1nc(CSCC(=O)NCC(C)N2CCc3sccc3C2)cs1 (stereo not given) | 1.2 | 0.9
31 | CCCCOc1ccc(-c2nc(C=Nc3nnc(CC)s3)c(O)o2)cc1 | -3.4 | -9.1
32 | O=C1C2C3C=CC(C3)C2C(=O)N1c1nccs1 (stereo not given) | -8.3 | -10.5
33 | CCCC(=O)N1CCN(c2cc(-n3nc(C)cc3C)nc(C)n2)CC1 | -8.6 | -16.2
34 | O=C1Nc2ccc(Br)cc2C1=NN=C1CC(c2ccccc2)N=N1 (stereo not given) | 2.2 | 0.4
35 | COc1ccc(-c2ccc(=O)n(CCNC(=O)Nc3cc(C)cc(C)c3)n2)cc1OC | 1.9 | 1.5
36 | O=C(NC1CCc2ccccc21)c1cc(COc2ccc(-n3cncn3)cc2)on1 (stereo not given) | -4.5 | -4.9
37 | Cc1oc(-c2ccccc2)nc1CN(C)CC(=O)Nc1ccc(F)cc1 | 18.9 | 9.6
38 | O=C(c1ccc2c(c1)OCO2)C1CCCN(Cc2ccc3cccc(F)c3n2)C1 (stereo not given) | 2.3 | 1.1
39 | O=c1oc2ccccc2cc1-c1csc(Nc2ccc(Oc3ccc(Cl)cc3)cc2)n1 | -5.4 | -13.3
40 | CNc1ccccc1C(=O)N1CCN(c2ccc3nnc(-c4ccco4)n3n2)CC1 | 4.8 | 4.5
41 | CCC1C=CCN1C(=O)c1cnc(N2CCOCC2)nc1 (stereo not given) | 4.3 | 0.1
42 | CN1CCN(C(=O)C2(c3ccccc3F)CC2)CC1C(=O)O (stereo not given) | 6.9 | 5.9
43 | COc1cccc(C2=N/C(=C\C=C\c3ccccc3)C(=O)O2)c1 | -3.7 | -11.7
44 | Cc1cc(C)c2sc(N(Cc3cccnc3)C(=O)c3ccc(C#N)cc3)nc2c1 | -6.9 | -4.8
45 | Clc1nnc(Cc2cccnc2)c2ccccc12 | -2.7 | -3.8
46 | CC1CCCC(NC(=O)CN2CCN(S(=O)(=O)c3ccc(F)cc3)CC2)C1C (stereo not given) | 2.3 | 1.7
47 | O=C(NCc1ccc(-c2ccccc2)cc1)c1ccccc1N1CCC(NC(=O)C2CCCCC2)CC1 | -1.1 | -1.6
48 | O=C(NCc1cccs1)NCc1nnnn1C1CCCCC1 | 2.4 | -0.6
49 | O=C(c1ccc(Oc2ccc(Cl)cc2)c(F)c1)N1CCC(O)CC1 | 5.6&-4.7 | 1.9&-4.5
50 | CCC(=O)Nc1ccccc1C(=O)C(=O)N1CCC2(CCOCC2)CC1 | 9.7 | 8.5
51 | COc1ccc(-c2c(C#N)c(N)nc3sc(C(=O)c4ccc(C)cc4)c(N)c23)cc1OC | -4.1 | -9.1
52 | CCCCn1c(N)c(N(CCC(C)C)C(=O)C2CCCO2)c(=O)[nH]c1=O (stereo not given) | 1.6 | 0.3
53 | O=C(c1cccc(S(=O)(=O)Nc2ccc3c(c2)OCO3)c1)N1CCCC2CCCCC21 (stereo not given) | 2.6 | 1.0
54 | Cc1cc(NC(=O)c2cccs2)n(-c2nc(-c3cccs3)cs2)n1 | -8.2 | -14.1
55 | O=CNNC(=O)COc1cccc2ccccc12 | 10.9 | 14.1
56 | Cc1ccc(-c2c(-c3ccccc3)ncn2CCCN2CCOCC2)o1 | 29.1 | 18.4
57 | CC(=O)NC(Cc1ccccc1F)C(=O)N1CCOC(c2ccccc2)C1 (stereo not given) | 9.3 | 20.2
58 | CCC1(O)CC(OC2CC(N(C)C)C(OC3CC(O)C(OC4CCC(=O)C(C)O4)C(C)O3)C(C)O2)c2c(cc3c(c2O)C(=O)c2c(O)cccc2C3=O)C1C(=O)OC (stereo not given) | -9.7 | -16.0
59 | CCN(CC)CCN(C(=O)c1cc(C)on1)c1nc2c(F)cc(F)cc2s1 | 4.5 | 2.3
60 | O=C1CCCN1c1ccc(S(=O)(=O)Nc2cc(Cl)ccc2N2CCOCC2)cc1 | 0.2 | -0.2

Additional compounds
no. | compound | NPYLR7 agonist | NPYLR7 agonist max-min
61 | CC1=NCCN1S(=O)(=O)c1cc(Br)ccc1Br | 0.8 | -1.5
62 | Cc1nc(C)c(C(=O)N2C[C@H](N)C[C@H]2C(=O)NC(C)C)s1 | -3.9 | -8.2
63 | CC(C)c1nc(CCNC(=O)c2ccc(C3CCNC3)cc2)cs1 (stereo not given) | 7.9 | 2.9
64 | CCCCc1c(-c2ccccc2)ncn1C(C)Cc1cnccn1 (stereo not given) | -0.1 | 0.1
65 | c1coc(CNc2nc(-c3ccco3)nc3ccccc23)c1 | -4.0 | -0.9
66 | Cc1nc(Cl)cc(NC(C)C2CC3CCC2C3)n1 (stereo not given) | -3.5 | -5.5
67 | COc1c(C)c(C(=O)c2ccc(N)c(C(=O)O)c2)n2ccccc12 | -0.8 | -3.8
68 | COCC(=O)Nc1ccc(N(C)C)c(CN(Cc2cccc(F)c2)C(=O)c2ccc(F)cc2)c1 | 4.8 | 11.7
69 | O=C(CCCn1cccn1)NCC1(c2cccc(Br)c2)CCCCC1 | 9.2 | 5.0
70 | CCCS(=O)(=O)Nc1ccc(-n2c(C)nc3ccccc3c2=O)cc1C | 7.4 | 4.6
71 | COc1cccc(C(=O)N2CCSC23CCN(C(=O)c2cccc([N+](=O)[O-])c2)CC3)c1 | -6.1 | 4.9
72 | O=C(CSc1nc2[nH]ncc2c(=O)[nH]1)Nc1ccc2c(c1)OCO2 | 0.7 | -0.6
73 | Cc1ncc([N+](=O)[O-])n1CCOC(=O)c1ccc(F)cc1 | -1.0 | -0.7
74 | COc1ccc(CCN(C)C(=O)CC2CCC(C)CC2)cc1OC (stereo not given) | 0.4 | -4.9
75 | O=C(c1ncn[nH]1)N(Cc1cccc(Cl)c1)C1CC1 | 5.0 | 2.4
76 | O=C(c1ccc(OC2CCN(Cc3ccccn3)CC2)cc1)N1CCN(C2CCCC2)CC1 | 16.1 | 0.8
77 | Cc1ccc(Nc2nc(NCC3CCCO3)nc3c2cnn3-c2ccccc2)cc1 (stereo not given) | 1.5 | 0.8
78 | CC(C)(C)NC(=O)NCC(c1ccsc1)N1CCOCC1 (stereo not given) | -10.7 | -12.1
79 | CN(Cc1ccc(N2CCOCC2)cc1)S(=O)(=O)c1ccccc1Cl | -4.9 | -7.8
80 | CCN(CC)C(=O)CSc1ncc(CO)n1Cc1ccccc1 | 0.2 | -0.6
81 | COc1cc2nc(CN3CCN(Cc4ccc(C(C)C)cc4)CC3)[nH]c(=O)c2cc1OC | -0.6 | -0.3
82 | CC(NS(=O)(=O)c1ccc(Cl)c(C(F)(F)F)c1)C1CC2CCC1C2 (stereo not given) | 3.3 | 14.7
83 | CCCNC(=O)C1(C)CCN(Cc2cccc3c2OCO3)C1 (stereo not given) | 0.9 | 0.7
84 | CC(C)NC(=O)c1ccc(-c2ccc([N+](=O)[O-])cc2)o1 | -0.2 | -4.1
85 | N#Cc1ccc(-c2nc(CCl)co2)cc1 | 16.7 | 7.9
86 | Cc1nc(NCCN(C)C)c2sc3nc4c(cc3c2n1)COC(C)(C)C4 | 6.5 | 2.0
87 | COc1ccc(CN(C)c2nccs2)c(OC)c1OC | 1.2 | -4.7
88 | CCn1cc(C(CC(=O)NCCN2CCCCC2)c2cccc(Cl)c2)c2ccccc21 (stereo not given) | 0.9 | 2.0
89 | O=C(/C=C/c1cccc([N+](=O)[O-])c1)Nc1nc2ccccc2s1 | -6.0 | -8.1
90 | O=C(C=Cc1ccc([N+](=O)[O-])cc1)c1ccc(I)cc1 | 6.9 | 0.8

Three compounds drawn at random from the list so far:
no. | compound | NPYLR7 agonist | NPYLR7 agonist max-min
19 | O=[N+]([O-])c1ccc(S(=O)(=O)NCCOc2ccc(-c3ccccc3)nn2)cc1 | -6.2 | -16.5
62 | Cc1nc(C)c(C(=O)N2C[C@H](N)C[C@H]2C(=O)NC(C)C)s1 | -3.9 | -8.2
18 | Cc1ccc(C(=O)N2CCCC(c3ccccc3)C2)c(=O)[nH]1 (stereo not given) | -1.9 | -4.5

Taken from above.
Value of #77 in NPYLR7 agonist max-min: 0.8
Value of #66 in NPYLR7 agonist: -3.5

Other records follow:
no. | compound | NPYLR7 agonist | NPYLR7 agonist max-min
91 | CC(c1ccncn1)N(C)C(=O)c1cn(-c2ccccc2)nn1 (stereo not given) | 10.2 | 6.0
92 | N#CC(=Cc1ccc2c(c1)OCCO2)c1nnc2n1CCCCC2 | -0.4 | -3.7
93 | Cn1cc(S(=O)(=O)Nc2ccc(OC(F)(F)F)cc2)c(=O)n(C)c1=O | 0.6 | -2.6
94 | O=C(NC1CCS(=O)(=O)C1)OC1CCCCC1 (stereo not given) | -1.1 | -1.5
95 | O=C(c1ccc2cc[nH]c2c1)N1CCOC(COc2cccc(C(F)(F)F)c2)C1 (stereo not given) | 23.7 | 27.2
96 | O=C(CSc1nnc(-c2ccccc2)n1-c1ccccc1)N/N=C\c1ccccn1 | -4.6 | -10.6

Single records, as listed above:
C=CCN1C(=O)NC(c2cccc(Cl)c2)C2=C1CN(CC(=O)NCc1ccco1)C2=O (stereo not given) reads NPYLR7 agonist: 2.8; NPYLR7 agonist max-min: 15.7
N#CC(=Cc1ccc2c(c1)OCCO2)c1nnc2n1CCCCC2 reads NPYLR7 agonist: -0.4; NPYLR7 agonist max-min: -3.7
O=C(c1ccc(Oc2ccc(Cl)cc2)c(F)c1)N1CCC(O)CC1 reads NPYLR7 agonist: 5.6&-4.7; NPYLR7 agonist max-min: 1.9&-4.5

Compounds above with a CF3 group (5):
no. | compound | NPYLR7 agonist | NPYLR7 agonist max-min
2 | CCCN(CC(=O)N(CCc1c[nH]c2ccccc12)Cc1ccc(C(F)(F)F)cc1)C(=O)c1ccc(Cl)cc1 | 20.8 | 28.6
9 | FC(F)(F)Oc1cccc(Oc2ccc3c(-c4ccccn4)noc3n2)c1 | 1.0 | -0.3
82 | CC(NS(=O)(=O)c1ccc(Cl)c(C(F)(F)F)c1)C1CC2CCC1C2 (stereo not given) | 3.3 | 14.7
93 | Cn1cc(S(=O)(=O)Nc2ccc(OC(F)(F)F)cc2)c(=O)n(C)c1=O | 0.6 | -2.6
95 | O=C(c1ccc2cc[nH]c2c1)N1CCOC(COc2cccc(C(F)(F)F)c2)C1 (stereo not given) | 23.7 | 27.2

Compound activity deposited in PubChem by Fisher Drug Discovery Resource Center.
